NPR1 antag: blocks ANP-stimulated signaling of human Npr1 receptor; P16066; HEK293 hNpr1 GloSensor cGMP, ANP-stimulated luminescence; Potency, µM (series often up to 46.3 µM), inactives show top-dose activity change, negative = inhibition, hits mostly inhibitors; 76,000 compounds, 1.6% hits; AID 1347048; active = well fitted inhibition curve with a large enough effect; inconclusive = small, poorly fitted or top-dose-only effect; inactive = no such curve, though single readings can be large or run the other way;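 also: nearly all actives have a fitted effect of over 60% in size; nearly all hits also lower the signal before the agonist is added; a reference antagonist and vehicle were the controls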
Target sequence (P16066 whole entry, looked up): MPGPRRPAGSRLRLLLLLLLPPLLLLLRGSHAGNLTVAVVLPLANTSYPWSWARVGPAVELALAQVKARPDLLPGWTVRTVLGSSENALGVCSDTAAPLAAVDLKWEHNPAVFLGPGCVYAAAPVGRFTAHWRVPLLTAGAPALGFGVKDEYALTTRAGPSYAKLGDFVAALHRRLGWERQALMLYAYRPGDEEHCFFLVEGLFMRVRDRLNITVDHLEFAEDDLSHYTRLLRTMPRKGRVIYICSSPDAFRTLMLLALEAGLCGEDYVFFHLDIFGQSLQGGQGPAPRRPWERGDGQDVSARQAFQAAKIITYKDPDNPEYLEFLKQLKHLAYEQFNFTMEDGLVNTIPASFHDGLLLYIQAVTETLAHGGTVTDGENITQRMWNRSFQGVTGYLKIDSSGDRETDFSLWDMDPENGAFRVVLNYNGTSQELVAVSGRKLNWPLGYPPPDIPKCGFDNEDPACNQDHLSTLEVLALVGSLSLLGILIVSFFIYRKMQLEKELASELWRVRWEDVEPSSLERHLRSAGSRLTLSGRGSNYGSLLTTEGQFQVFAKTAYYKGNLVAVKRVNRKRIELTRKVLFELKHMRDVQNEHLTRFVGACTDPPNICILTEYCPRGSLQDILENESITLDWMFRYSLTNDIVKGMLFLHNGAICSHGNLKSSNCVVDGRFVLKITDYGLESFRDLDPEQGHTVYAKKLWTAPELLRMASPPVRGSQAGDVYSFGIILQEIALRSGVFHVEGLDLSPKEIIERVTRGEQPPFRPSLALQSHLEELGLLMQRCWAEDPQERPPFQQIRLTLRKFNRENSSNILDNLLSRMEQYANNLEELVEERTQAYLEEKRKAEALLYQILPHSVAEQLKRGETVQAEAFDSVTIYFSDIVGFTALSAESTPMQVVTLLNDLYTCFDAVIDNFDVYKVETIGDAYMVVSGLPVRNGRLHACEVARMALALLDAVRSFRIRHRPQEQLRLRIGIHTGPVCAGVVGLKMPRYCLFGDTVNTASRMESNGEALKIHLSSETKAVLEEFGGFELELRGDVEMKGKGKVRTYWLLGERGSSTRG
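Compound pre-incubated 30 min at room temperature on GloSensor-loaded HEK293 cells stably carrying hNpr1 and the pGS-40F cGMP biosensor. Stimulation uses hNppA at 0.1 nM final; luminescence is taken at baseline and 20 min post-agonist.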
The depositor's hits bear a star; ? = inconclusive; & = joins results of further samples; [ ] = remark or other dose. % is scaled to controls: 0 for no effect and ±100 for the full control effect; potency is read from the fitted curve at half-maximal effect.

SMILES | NPR1 antag
O=C(NC1CCN(c2cc(-c3ccc(Cl)cc3)[nH]n2)CC1)c1ccc2[nH]ccc2c1 | -22.3%
CCOCCn1c(=O)n(CCCN(C)C)c2cc(C(=O)O)cnc21 | -5.4%
CN(C)CC(O)c1cc2n(n1)CCCN(C(=O)c1cccc(N(C)C)c1)C2 (centres undefined) | 13.5%
CCOc1ccccc1C1NC(=O)N(CC(=O)Nc2ccc(C)c(Cl)c2)C2=C1C(=O)OC2 (centres undefined) | -22.1%
Cc1cccnc1CNC[C@H]1O[C@@H]2C[C@@H](CC(=O)N3CCC(F)(F)C3)O[C@@H]2[C@@H]1O | 5.6%[70.6 µM]
O=C(Nc1ccc2c(c1)OCCO2)N1CCCC(c2nc(C3CCOCC3)no2)C1 (centres undefined) | 1.4%
COc1ccc(S(=O)(=O)NCCc2noc(-c3ccncc3)n2)cc1 | 0.0%
O=C1CC2(CCN(C(=O)c3ccccc3F)CC2)CN1C/C=C/c1ccccc1 | 0.1%
COc1cc2c(cc1CNCC1(O)CNCCOC1)OCCO2 (centres undefined) | 2.7%
Cn1ncc(N2CCC(CNC(=O)C3(c4ccccc4)CCCC3)C2)cc1=O (centres undefined) | 4.2%
CCCc1ccc(S(=O)(=O)N(C)CC2CCOC2)cc1 (centres undefined) | -14.8%
Cc1cnc(C(=O)NC2C[C@H]3CC[C@@H](C2)N3C(=O)CC(C)C)cn1 (some centres undefined) | -3.9%
COc1ccc(CC(=O)N2CCN(c3cc(-c4cccs4)[nH]n3)CC2)cc1OC | 0.8%
O=C1NCCCc2[nH]c(-c3csc(-c4cnccn4)n3)nc21 | 3.4%
O=C(Nc1ccc(F)cc1)N[C@H]1[C@H](O)[C@@H](Oc2ccccc2)[C@@H]2OC[C@H]1O2 | 3.7%[70.6 µM]
O=C1NCCCCCCN(Cc2ccncc2)[C@@H]2CN(C(=O)C3CCCCC3)CC[C@@H]12 | 5.0%
Cc1cnc(C)c(-c2cc(O)c3c(c2)CN(C(=O)C2CCOC2)CCO3)n1 (centres undefined) | -2.8%
C#CCNC(=O)C[C@@H]1C[C@@H](C(C)C)[C@H](CNC(=O)c2ccccn2)C=C1C | 5.8%[70.6 µM]
COCC(=O)N(C1CCOCC1)C1CCN(C(=O)c2cc(Cl)ccc2F)CC1 | -18.4%
OC1CN(Cc2ccccc2)CCN(c2nc(-c3ccccc3)no2)C1 (centres undefined) | ?
CS(=O)(=O)N1CCC(C2CCN(C(=O)c3ccc4[nH]ccc4c3)C2)CC1 (centres undefined) | 1.6%
CN(C)[C@@H]1CN(C(=O)C2(c3ccccc3)CC2)C[C@H]1CO | 0.8%
O=C1NC2(CCN(C(=O)c3ccccc3F)C2)Oc2ccccc21 (centres undefined) | -20.5%[70.6 µM]
CN(C)C(=O)N1CCC2(C1)C(=O)N(CCc1ccccc1)c1ccccc12 (centres undefined) | 0.0%&-13.3%
CN(C)CC(=O)N1CCC2(CC1)NCCc1c2[nH]c2ccccc12 | 5.5%
COCCOC1CCN(C(=O)c2cccc(C)c2)CC1 | -1.8%
COc1ccc(CC(=O)N[C@H](C)c2onc(C)c2C(=O)O)cc1 | 2.9%[70.6 µM]
O=C1NCC(=O)N2CCN(Cc3ccccc3-c3ccccc3)CC12 (centres undefined) | 0.1%
Cc1nc(Cn2ccnc2-c2cn(C3CCNCC3)nn2)cs1 | 2.8%
COc1ccc(C(=O)N2C[C@@H](CO)[C@H](c3ccncc3)C2)c(C)c1 | -3.8%
Fc1ccc(Nc2cnc3ccc(N4CCOCC4)nn23)cc1F | -0.1%[70.6 µM]
Cc1c(F)cccc1NC(=O)N1CCC(Oc2ncccc2C(=O)N2CCOCC2)C1 (centres undefined) | -0.6%
Clc1cc(NC2CCCCCC2)n2nccc2n1 | 4.4%[70.6 µM]
CNC(=O)[C@H]1C[C@H](Oc2ccccc2)CN1C(=O)Cn1ccnc1 | 0.8%
COc1cc(-c2onc(C)c2C(=O)NC2Cc3ccccc3C2)cc(OC)c1OC | -9.7%
CC1(c2ccccc2)N(Cc2ccccc2)C(=O)OC12CCN(C(=O)CN1CCOCC1)CC2 (centres undefined) | -4.5%
COCC(=O)N[C@H]1CO[C@H]2[C@@H]1OC[C@H]2O | -19.3%[70.6 µM]
CCCc1ncncc1C(=O)N1CCCC(CCc2ccc(F)cc2)C1 (centres undefined) | 1.4%
COc1ccc(NC(=O)O[C@@H]2CO[C@H]3[C@@H]2OC[C@@H]3NC(=O)c2ccc(OC)cc2)cc1 | -23.9%[70.6 µM]
CCN(CC)c1cc(CCC(=O)NCc2ccccc2C)ccn1 | -25.1%
COCc1cccc(-c2n[nH]c3c2CC(=O)N(Cc2ccc(OC)cc2)C3)c1 | -21.5%[70.6 µM]
CCOC(=O)C1CCN(C(=O)c2cn3ccnc(-c4ccc(OC)cc4)c3n2)CC1 | -21.5%
CN(C(=O)CN1C(=O)NC2(CCOCC2)C1=O)c1ccccc1 | 11.7%
O=S(=O)(NCC1CCOCC1)c1cccnc1 | -1.8%
Fc1ccccc1-c1cc2c(cn1)CN(Cc1ccncc1)CCN2 | ?
CN(C)c1ccc(C(=O)N[C@H]2C[C@H]3C(=O)NC[C@@H](CCC(=O)NCc4cccs4)N3C2)cc1 | 7.1%
CN(Cc1cc(C[C@@H]2C[C@H](NCc3cccnc3)C2(C)C)no1)c1ccccc1 | ?
O=C(NCC1CN(C(=O)c2cccc(Cl)c2)CC12CN(c1ccccc1)C2)C1CC1 (centres undefined) | -2.9%[70.6 µM]
Cc1cnc(C(=O)N2CCC(F)(c3nc(-c4ccncc4)no3)CC2)cn1 | -0.7%
COc1ccccc1-c1cnc(Nc2ccc(CN3CCN(C)CC3)cc2)c2c1CCO2 | -10.5%[70.6 µM]
N#Cc1cccc(NC(=O)N[C@H]2[C@H](O)[C@@H](Oc3ccccc3)[C@@H]3OC[C@H]2O3)c1 | -1.8%[70.6 µM]
Cc1c(C(=O)O)sc2ncnc(N3CCNC(C(=O)O)C3)c12 (centres undefined) | 0.8%
Cc1csc(CN(C)C(=O)CC(c2ccccc2)c2ccc3c(c2)OCO3)n1 (centres undefined) | -30.5%
CN(C)C[C@@H]1CN(C)C[C@H]1NS(=O)(=O)c1ccc(Br)cc1 | 1.7%
CCc1[nH]nc(-c2nc(C3CC3)nn2-c2ccc(S(N)(=O)=O)cc2)c1C | -2.5%
CCc1noc(-c2cn(C3CCN(C(=O)c4ccc(OC)c(F)c4)CC3)nn2)n1 | 0.0%
Cc1noc(C)c1[S+](=O)([O-])N1CCn2c(nn(-c3ccc(F)cc3F)c2=O)C1 | 0.0%
CC(C)(C)CC(=O)N[C@H]1C[C@H]2C(=O)Nc3ccc(-c4ccsc4)cc3C(=O)N2C1 | -0.6%[70.6 µM]
CSc1cccc(NC(=O)Cn2ccn3nc(-c4ccccc4)c(CO)c3c2=O)c1 | -1.1%
COc1ccc(CCNC(=O)c2noc(-c3ccc(F)cc3)n2)cc1OC | ?
Carrying on:
SMILES | NPR1 antag
CC(C)c1noc([C@@H]2C[C@H]3C(=O)NCCCCCCN(C(=O)CC4CCCCC4)[C@H]3C2)n1 | -2.6%
Cn1c([C@H]2CCN(Cc3ccc(Cl)cc3)C2)nc2ccccc21 | ?
O=C(NC1CCN(c2cc(-c3ccccc3)[nH]n2)C1)c1ccccc1Cl (centres undefined) | -11.8%
Cc1cnc(CCNC(=O)Nc2ccc3c(c2)OCCO3)n1C1CC1 | -14.8%
CC(=O)N1CCc2c(n(Cc3cccnc3)n(CCc3ccccc3)c2=O)C1 | -0.5%[70.6 µM]
CC(C)NC(=O)[C@@H]1C[C@@H](N)CN1C(=O)c1cccc2ccccc12 | 0.1%
COc1ccc(CCC(=O)N2CC[C@H](CO)[C@H](O)C2)cc1OC | 1.1%
Cc1ncccc1C(=O)N1CCC(N2C[C@H](O)C[C@H]2C(=O)NC2CCCCC2)CC1 | 12.4%
COc1ccc(-c2cc(N3CCN(C(=O)c4ccccc4Br)CC3)n[nH]2)cc1 | ?
Cc1nc2c(c(-c3ccc(O)cc3)n1)CN(Cc1ccccn1)CCC2 | -16.6%
NS(=O)(=O)CCCC(=O)N1CCC(c2ncc[nH]2)CC1 | 1.5%
C=CCCC(CN1CCCOCC1)Oc1cc(CCC)nc(C)n1 (centres undefined) | 5.7%
Cc1cn2nc(C(=O)NC(C)CCc3ccccc3)cc2c(N2CCCC2)n1 (centres undefined) | 7.3%
O=C1NCCCCCCN(C(=O)c2ccsc2)[C@H]2CCCC[C@@H]12 | -1.9%
Cc1cc(=O)n(CC(=O)Nc2cccc(F)c2)c(N(C)Cc2ccccc2)n1 | ?
Cc1ccc(S(=O)(=O)N2CC(c3noc(-c4cccnc4)n3)C2)cc1Cl | -15.6%
O=C(CN1C(=O)NC2(CCCCC2)C1=O)Nc1cccc(C(F)(F)F)c1 | -1.2%
Cc1ccc(CN2CC[C@H](CNC(=O)C3CC3)[C@H](N(C)C)C2)s1 | 3.2%
CCN1CCN(c2nc3c(s2)CN(C(=O)Cc2cccnc2)CC3)CC1 | -0.3%
COc1ccc(NC(=O)Cn2c(-c3ccc(Cl)cc3)nc(C)c(CCO)c2=O)cc1OC | -3.7%
Cc1cccc(OCC2CCCN(C(=O)c3sc(C(C)C)nc3C)C2)c1 (centres undefined) | -27.4%
CN(C)S(=O)(=O)N1CCCC(c2nc(-c3cnccn3)no2)CCNC(=O)CC1 (centres undefined) | -4.8%
Cn1c([C@H]2CCN(C(=O)c3cccnc3)C2)nc2ccccc21 | -1.2%[70.6 µM]
CCCS(=O)(=O)N1CCC(c2noc(-c3cccnc3)n2)C1 (centres undefined) | -3.1%
CCOc1ccc(-c2cc3c(=O)n(CC(O)c4ccc(C(C)C)cc4)ccn3n2)cc1 (centres undefined) | 2.7%
Cn1nc(-c2nncn2CC2CC2)c2c1CCN(C(=O)c1n[nH]c3ccccc13)C2 | 1.3%
O=C(COc1ccccc1)Nc1cnc(-c2cccc(Cl)c2)nc1 | 0.3%
Cc1cccc(-n2nc(-c3c(C)nc4scc(CC(=O)NCc5ccccc5)n4c3=O)cc2C)c1 | -4.1%
O=C(NCc1cccnc1)c1cnc2c(c1)N([S+](=O)([O-])c1cccnc1)CCC2 | 3.0%[70.6 µM]
Cn1nccc1CN1CCC2(C1)C(=O)N(CCc1ccccc1)c1ccccc12 (centres undefined) | -0.5%&-27.1%
COc1ccc(S(=O)(=O)N2CCc3c(C(=O)NCCc4ccccn4)cccc32)cc1 | ?
O=C(Nc1ccc(F)cc1)N1CCCC(Cn2c(C3CC3)nc3cccnc32)C1 (centres undefined) | -1.1%
NCCC(=O)NC1CCCc2c1cnn2-c1ccc(F)cc1F (centres undefined) | 0.3%
COc1ccc(CNC(=O)Cn2ccn3nc(-c4ccccc4)c(CO)c3c2=O)cc1OC | 5.7%
O=C1NCCCCCCN(C(=O)COc2ccccc2)[C@H]2C[C@H](c3nc(-c4cnccn4)no3)C[C@@H]12 | -6.4%
CN(CC1CCOCC1)C(=O)c1ccc(Br)cc1 | 0.7%
COCCn1c(C)cnc1CCNS(=O)(=O)c1c(C)noc1C | 6.2%
Cc1cn(CC(=O)NC2CCOC3(CCOCC3)C2)c(=O)[nH]c1=O (centres undefined) | -4.1%
Clc1ccc(-c2cnc3n2C[C@H](CNCc2cccnc2)OC3)cc1 | -12.1%[70.6 µM]
COc1ccc(-c2onc(C)c2C(=O)NCCc2cccc(OC)c2)cc1 | -9.4%
CCOc1ccccc1C1NC(=O)N(CC(=O)Nc2c(C)cc(C)cc2C)C2=C1C(=O)OC2 (centres undefined) | -2.8%
COc1ccccc1NC(=O)N1CCN2C(=O)NC[C@H]2C1 | 2.6%[70.6 µM]
COc1ccc(S(=O)(=O)N2CCCN(C)c3ccccc32)cc1Cl | 0.5%
Cc1ocnc1C(=O)N1CCC2(CCC(=O)N(CC(C)O)C2)CC1 (centres undefined) | 5.9%
CN1C[C@@H](NS(=O)(=O)c2ccccc2)C[C@H]1c1nc(-c2ccc(F)cc2)no1 | -22.2%[70.6 µM]
Cc1ccc(-c2cc(O)c3c(c2)CNCCO3)cc1 | 1.2%
Cn1cc(CN2C[C@H](C(=O)Nc3ccncn3)C[C@@H]2c2cccc(C(F)(F)F)c2)cn1 | -8.9%[70.6 µM]
Cc1ccsc1C(=O)NCCC1CCN(C(=O)Nc2ccccc2)CC1 | -2.2%
O=C(O)c1ccc(CN2C[C@H](O)C[C@H]2c2nc(C3CC3)no2)cc1 | 5.5%[70.6 µM]
COc1ccccc1[C@@H]1CN(C(=O)c2cc(C(C)C)[nH]n2)C[C@H]1C(=O)O | -9.1%
CCOc1cccc(CN2CCC3(CC2)CN(C)CC3COC)c1 (centres undefined) | -13.3%
COc1ccc(NC(=O)C2CCCN(c3cnn(C)c(=O)c3)C2)cc1 (centres undefined) | -2.4%
O=c1n(CC2CC2)nc2n1CCC(NS(=O)(=O)Cc1ccccc1)CC2 (centres undefined) | -1.4%

These rows are one share of the data, so the mix of outcomes need not match the whole.
